FEN1 inh: qHTS Assay for the Inhibitors of Human Flap endonuclease 1 (FEN1); AID 588795, 2011; Potency, µM (series often up to 114 µM), inactives show at the top dose activity change, negative = inhibition, usual class: inhibitors; P39748; Recombinant FEN1 flap cleavage, fluorescence, 15 min; hit rate 0.35% among 390,000; note: nearly all actives have a fitted effect of over 65% in size
Target sequence (P39748 whole entry, looked up): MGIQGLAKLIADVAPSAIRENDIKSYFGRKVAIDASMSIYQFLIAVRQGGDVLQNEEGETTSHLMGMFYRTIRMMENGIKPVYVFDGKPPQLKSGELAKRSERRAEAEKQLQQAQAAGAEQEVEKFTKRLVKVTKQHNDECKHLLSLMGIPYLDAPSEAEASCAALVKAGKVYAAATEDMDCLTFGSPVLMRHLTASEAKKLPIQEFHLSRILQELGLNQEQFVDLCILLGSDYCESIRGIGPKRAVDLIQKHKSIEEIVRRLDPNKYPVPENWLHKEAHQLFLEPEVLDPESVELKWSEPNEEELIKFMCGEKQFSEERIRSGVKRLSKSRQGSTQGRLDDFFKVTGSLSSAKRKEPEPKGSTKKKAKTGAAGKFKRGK
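Nuclease activity of 10 nM FEN1 was measured after 15 min of room-temperature exposure to titrated compounds, by adding 50 nM flap substrate and reading plates at 0 and 15 min.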
N370S GC: qHTS Assay for Inhibitors and Activators of N370S glucocerebrosidase as a Potential Chaperone Treatment of Gaucher Disease | hit rate 0.092% among 330,000 | Lysosomal acid glucosylceramidase (Homo sapiens), P04062 | Potency, µM (highest dose often 59.4 µM), inactives show at the highest dose activity change, negative = inhibition, hits mostly inhibitors | N370S GC spleen homogenate, 4MU-glucoside fluorescence | AID 2101, 2009;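 note: 0% = full enzyme activity and -100% = no enzyme basal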
* hit, by the source's call; ? = inconclusive; / = not tested or not shown; & = joins results of further samples. Calls come from the whole dose curve; as a rule, active = well fitted curve in the direction sought with a large enough effect; inconclusive = small, poorly fitted or top-dose-only effect, or another doubt; inactive = no such curve, though single readings can be large; an effect the other way counts as inactive or inconclusive. Unless noted, % is set by controls: 0 for no effect and ±100 for the full control effect; potency is the fitted concentration of half-maximal effect. The list is partial; most or all hits stand in other tables.

The line under a structure holds: FEN1 inh | N370S GC
> Cn1ccc(C(=O)Nc2sc3c(c2C(N)=O)CCCCC3)n1
    -7% | -9%
> Cc1c(C(=O)NCc2ccccc2CN2CCCC2)oc2ccccc12
    -5% | -10%
> CCOC(=O)c1ccccc1NC(=O)Cn1ncc2c1-c1ccccc1OC2
    1% | /
> COc1ccc(/C=C/C(=O)c2cc(Br)ccc2OC(=O)c2ccco2)cc1OC
    3% | 14%
> CC(C)(C)c1ccc(C(=O)N2CCCC2)s1
    -4% | 12%
> CN1C(=O)C(=O)N(CC(=O)N2CCc3ccccc32)C1=O
    -1% | -6%
> COc1ccccc1NC(=O)C1(C)Cc2ccccc2C(=O)O1 (configuration not stated)
    ? | 1%
> CCN(CC)C(=O)C1CCN(C(=O)c2oc3ccc(C)cc3c2C)CC1
    2% | -8%
> CCOc1c(C(N)=O)cc([N+](=O)[O-])cc1[N+](=O)[O-]
    -2% | -6%
> CCCOc1ccc(OCCOCCNCc2ccccc2)cc1
    5% | -1%
> O=C(COC(=O)c1ccccn1)NNC(=O)c1ccc(Br)cc1
    -2% | /
> CSc1ccccc1C(=O)NCc1cccnc1
    -11% | 9%
> CCc1ccc(CNC(=O)CN2C(=O)COc3ccccc32)cc1
    -4% | 18%
> CC(C)NC(=S)Nc1ccc(Oc2ccccc2)cc1
    9% | 3%
> CC1CN(C(=O)c2c(Br)cnn2C)CC(C)O1 (configuration not stated)
    3% | 16%
> Nc1ncnc2c1cnn2C1CCCCC1
    -13% | 4%
> O=C(Nc1ncc(Cc2ccccc2)s1)c1cccs1
    -23% | ?
> CC1=NOC(=O)/C1=C\c1ccc(-c2ccc(Br)cc2C(=O)O)o1
    -11% | -2%
> Cc1cc(C(=O)OCC(=O)NC2(C#N)CCCCC2)c(C)o1
    -12% | /
> O=C1CN(C(=O)c2cc([N+](=O)[O-])ccc2Cl)C(c2ccccc2)c2cc(F)ccc2N1 (configuration not stated)
    -3% | -8%
> COCc1cc(CNC(=O)C2CCC(=O)N(Cc3cccc(OC)c3)C2)[nH]n1 (configuration not stated)
    -2% | -11%
> CC(=O)NCc1cccc(CNC(C)=O)n1
    -16% | 14%
> COC(=O)Nc1nncs1
    -12% | -4%
> C=CC(C)(C)c1c2occc2c(O)c2ccc(=O)oc12
    -7% | /
> COc1cccc(CNS(=O)(=O)/C=C/c2ccc3c(c2)OCO3)c1
    -14% | 4%
> COc1cc(Cl)cc2c1Sc1ccccc1/C2=C/CCN(C)C
    -6% | -14%
> Cc1ccc(-c2csc3nc(C)n(N)c(=O)c23)cc1
    8% | -3%
> C[C@@](N)(C(=O)O)c1cccc(CC(=O)O)c1
    / | 0%
> COCCN(C(=O)CSc1n[nH]c(-c2ccc(OC)cc2)n1)c1c(N)n(Cc2ccccc2)c(=O)[nH]c1=O
    -7% | 0%
> Cc1nn(C2CCS(=O)(=O)C2)c(Cl)c1/C=C/C(=O)OCC(=O)N(C)C (configuration not stated)
    0% | 1%

Next section; it opens with the 5 that closed the last part.
The line under a structure holds: FEN1 inh | N370S GC
> COc1cc(Cl)cc2c1Sc1ccccc1/C2=C/CCN(C)C
    -6% | -14%
> Cc1ccc(-c2csc3nc(C)n(N)c(=O)c23)cc1
    8% | -3%
> C[C@@](N)(C(=O)O)c1cccc(CC(=O)O)c1
    / | 0%
> COCCN(C(=O)CSc1n[nH]c(-c2ccc(OC)cc2)n1)c1c(N)n(Cc2ccccc2)c(=O)[nH]c1=O
    -7% | 0%
> Cc1nn(C2CCS(=O)(=O)C2)c(Cl)c1/C=C/C(=O)OCC(=O)N(C)C (configuration not stated)
    0% | 1%
> CSc1nc2nc3c(c(=O)n2[nH]1)CCCC3
    2% | 3%
> C=CCn1c(SCc2cc(=O)n3ccsc3n2)nc2ccccc2c1=O
    -12% | 4%
> O=C(Nc1ccccc1)Nc1nnc(SCC(=O)N2CCCCC2)s1
    25% | /
> CCOC(=O)c1sc(SC)nc1N
    -3% | 0%
> CCOC(=O)c1cc(-c2ccccc2)nn1CCC#N
    1% | -7%
> CCc1nnc(NS(=O)(=O)c2ccc(Nc3ccc4nonc4c3[N+](=O)[O-])cc2)s1
    -4% | -14%
> CC(=O)Nc1nc(SCC(=O)Nc2nnc(C)s2)[nH]c(=O)c1NC(=O)c1cccs1
    9% | 2%
> CCN(Cc1ccccc1)C(=O)Cn1c(=O)n(CCC(=O)N2CCCCC2)c(=O)c2sccc21
    4% | -6%
> Cc1ccc(C)c2nc3sc(C(=O)N4CCCc5ccccc54)c(N)c3cc12
    -9% | 3%
> O=C(CSc1nnc(CN2CCOCC2)n1-c1ccccc1)N1CCc2ccccc21
    7% | 2%
> COc1ccccc1[C@H]1C(c2cccc(Cl)c2)=NN(c2ccccc2)[C@@H]1CO
    -8% | ?
> COc1ccc(/C=C2\CCC(C3CCCC3)C2=O)cc1Cn1nc(C)cc1C (configuration not stated)
    -3% | 1%
> Cc1nn(C)cc1/C=C(/C#N)C(N)=O
    7% | -3%
> CC(=O)Nc1ccc(S(=O)(=O)Nc2ccc3nc(C)sc3c2)cc1
    -4% | /
> O=C(CN1C(=O)NC2(CCc3ccccc32)C1=O)NCc1ccccc1Cl (configuration not stated)
    18% | /
> COc1ccc(OC)c(CCNC(=O)CC2Oc3ccc(C)cc3NC2=O)c1 (configuration not stated)
    -3% | 14%
> CCOc1ccc(/C(C)=N/NC(=O)C(OC)c2ccccc2)cc1 (configuration not stated)
    -4% | -23%
> O=C(CCNC(=O)c1ccccc1)N/N=C/c1ccc([N+](=O)[O-])cc1
    0% | -1%
> N#Cc1c(NC(=S)NC(=O)Cc2cccs2)sc2c1CCCCC2
    -18% | 2%
> COc1cccc(C(=O)NNC(=O)Cc2csc(N)n2)c1
    1% | 2%
> O=C(/C=C/c1ccc([N+](=O)[O-])cc1)NCCN1C(=O)S/C(=C\c2ccc(F)cc2)C1=O
    -6% | 4%
> O=C(c1cc(F)ccc1F)C1CCCN(C(=O)c2ccc3nccnc3c2)C1 (configuration not stated)
    2% | -10%
> Cc1cc(F)c(F)c(C(=O)N2CCOCC2)c1
    -1% | 28%
> O=C(NCCC(c1ccccc1)c1ccccc1)c1cccs1
    0% | ?
> Cc1ccc(C)c(NS(=O)(=O)c2ccc(NC(=O)c3ccco3)cc2)c1
    4% | 2%
> COC(=O)c1cc(OC)c(OC)cc1NC(=O)Cn1nnc(-c2ccccc2Cl)n1
    -6% | 6%
> COc1ccc(N(C(=O)c2snc(C(N)=O)c2N)C(C(=O)NCc2ccc(F)cc2)c2ccc(C)o2)c(OC)c1 (configuration not stated)
    -9% | 2%
> Cc1nc2ccccc2c(=O)n1NC(=O)c1ccccc1Cl
    1% | 5%
> CC(=O)c1c(C)nn(-c2ccccc2)c1C
    2% | 0%
> Cc1ccc2nc(NC(=O)c3ccc(S(=O)(=O)N4CCCc5ccccc54)cc3)sc2c1
    11%&6% | -10%
> CNC(=O)CSc1cnc2ccccc2n1
    0% | -19%
> O=C(CSc1nc2c(c(=O)[nH]1)CCC2)Nc1cccc(F)c1
    -2% | -2%
> Fc1cccc(NC(=S)N2CCc3ccccc32)c1
    0% | -16%
> OCCN1CCN(C(c2ccccc2Cl)c2sc3nc(-c4ccco4)nn3c2O)CC1 (configuration not stated)
    -13% | /
> CC(=O)Nc1ccc(NC(=O)CCc2nc3cccnc3n2Cc2cccs2)cc1
    -4% | /
> OC(CNCCC1C=Nc2ccccc21)Cn1c2ccc(Cl)cc2c2cc(Cl)ccc21 (configuration not stated)
    -17% | 9%
> O=c1cc(-c2ccc(OCc3ccccc3)cc2)oc2cc(OCc3ccccc3)cc(OCc3ccccc3)c12
    -4% | /
> COc1ccc(C(=O)NC2CC(C)(C)Cc3c2cnn3-c2ccccc2)cc1OC (configuration not stated)
    -7% | -3%
> CC(=O)COc1ccc2c3c(c(=O)oc2c1)CCCC3
    1% | 4%
> COc1ccc(C(C(=O)NC2CCCCC2)N(C(=O)CCCC(=O)Nc2ccccn2)c2ccc3c(c2)OCCO3)cc1 (configuration not stated)
    6% | 9%
> CC(=O)c1cccc(NC2c3ccccc3C(=O)N2Cc2ccco2)c1 (configuration not stated)
    -12% | 13%
> COc1cccc(C2=NOC(C(=O)N3CCOCC3)C2)c1 (configuration not stated)
    -3% | 2%
> CN(C1CCCC1)C1CCN(C(=O)CNC(=O)/C=C/c2ccccc2)CC1
    -1% | 12%
> Cc1oc2c(c(=O)c1C)C(=O)CC(c1ccccc1)C2 (configuration not stated)
    3% | -3%
> CCC(C)(C(=O)NC1CCCCC1)N(C(=O)Cc1cccs1)c1ccccc1 (configuration not stated)
    1% | -3%
> CN1CCc2c(sc(NC(=O)CS(=O)(=O)c3ccc(F)cc3)c2C(N)=O)C1
    -6% | -13%
> CC[n+]1c(/C=C/N(C)c2ccccc2)oc2ccc(Cl)cc21
    3% | 7%
> COc1ccc(C2CC(c3cccs3)=NN2c2ccccc2)cc1 (configuration not stated)
    11% | ?
> O=C1C(=O)N(CCOCCO)C(c2ccccn2)/C1=C(\O)c1ccccc1 (configuration not stated)
    3% | -1%
> COc1ccc(OCC(=O)OCCN(C)C)cc1
    1% | 13%
> Cc1cc(C)nc(NS(=O)(=O)c2ccc(N3C(=O)C4CC=C(Cl)CC4C3=O)cc2)n1 (configuration not stated)
    6% | 7%
> CC(C(=O)Nc1ccc(S(=O)(=O)N2CCCC2)cc1)N1CCc2ccccc2C1 (configuration not stated)
    14% | /
> CC(=O)c1c(C)[nH]c(C(=O)OCC(=O)Nc2ccc(C)cc2[N+](=O)[O-])c1C
    -13% | -24%
> CCOC(=O)c1ccc(Oc2nc(N(C)C)nc(N3CCOCC3)n2)cc1
    9% | 29%
> COc1ccc(CCCOC(Cn2ccnc2)c2ccc(OC)cc2)cc1 (configuration not stated)
    / | ?
> CCN1CCN(C(=O)c2ccccc2N(C)S(=O)(=O)c2ccc(C)cc2)CC1
    -5% | -1%
> O=C(CCn1c(=S)[nH]c2cc3c(cc2c1=O)OCO3)NCc1ccc(Cl)cc1
    -5% | -3%
> S=C(Nc1cccc(Cl)c1Cl)Nn1cnnc1
    -5% | 1%
> Cc1sc[n+](CC(=O)c2ccc(Br)cc2)c1C
    12% | -5%
> COc1ccc(-n2c(CNC(=O)COc3ccc(Cl)cc3Cl)n[nH]c2=S)cc1
    36% | 10%

Following part
The line under a structure holds: FEN1 inh | N370S GC
> C[C@H](CO)N1C[C@H](C)[C@@H](CN(C)Cc2ccc(Cl)c(Cl)c2)Oc2c(NS(=O)(=O)c3cccs3)cccc2C1=O
    -17% | /
> C/C(=N/N=C1/NC(=O)CC(C(=O)O)S1)c1ccccc1 (configuration not stated)
    0% | -3%
> NC(=O)COc1c(-c2ccccc2)oc2ccccc2c1=O
    2% | 6%
> COc1ccc(NC(=O)C(C)N2c3cccc4cccc(c34)S2(=O)=O)cc1OC (configuration not stated)
    -6% | 4%
> COC(=O)c1ccc(NC(=O)NC2CCCCC2)cc1
    -3% | 10%
> O=C(CSc1nc2[nH]ncc2c(=O)n1-c1ccccc1Br)NCc1ccccc1Cl
    -18% | 3%
> O=C(CN1C(=O)COc2ccc(S(=O)(=O)NC3CCCC3)cc21)Nc1ccc(F)c(Cl)c1
    6% | /
> CC(=O)N1N=C(c2cccc(Br)c2)OC12CCCC2
    1% | 1%
> Cc1nc2ccc(C(=O)Nc3ccccc3Cl)cc2s1
    -2% | -11%
> O=C(c1ccc2c(c1)OCO2)C1CCCN(C(=O)Nc2ccc(F)cc2F)C1 (configuration not stated)
    1% | -7%
> Cc1ccc(Br)c(NS(=O)(=O)c2cccc(C(=O)N3CCNC(=O)C3)c2)c1
    9% | /
> Cc1cc2c(c(CO)c1CCO)C(=O)[C@@H](C)[C@@H]2O
    -4% | /
> Cc1cccnc1NC(=O)c1ccc(S(=O)(=O)N2CCCCC2)cc1
    -10% | -18%
> CC(=O)Oc1c(C)c(C)c2c(c1C)CC[C@@](C)(CCC[C@H](C)CCC[C@H](C)CCCC(C)C)O2
    -13% | 1%&1%
> COc1ccc(N(CC(=O)NCc2ccccc2OC)S(=O)(=O)c2ccccc2)cc1
    -4% | -9%
> CN1CCN(c2ccc(Cl)cc2NC(=O)/C=C/c2cccc(F)c2)CC1
    4% | -29%
> O=C(CCN1C(=O)c2ccccc2C1=O)N(CCO)Cc1ccccc1
    9% | 8%
> CC1CC(C)CN(C(=O)C2CCN(S(=O)(=O)c3c(Cl)cccc3Cl)CC2)C1 (configuration not stated)
    -4% | -8%
> COc1ccc(NC(=O)Cn2nnc(C(=O)NCc3cccs3)c2N)cc1Cl
    -11% | 1%
> O=C(CCN1C(=O)COc2ccccc21)NCCCN1CCN(c2ccc(F)cc2)CC1
    -18% | 5%
> O=C(O)Cn1cnc2c(oc3ccccc32)c1=O
    -8% | 6%
> Cc1ccc(-c2nnc(N3CCCCC3)c3ccccc23)cc1S(=O)(=O)N1CCN(C)CC1
    -3% | 11%
> O=C(Cn1c(NCCCO)nc2ccccc21)c1ccc(Br)cc1
    -8% | -10%

One compound at a time, from the list above. Screens in order: FEN1 inh | N370S GC
O=C(O)Cn1cnc2c(oc3ccccc32)c1=O in the list: -8% | 6%
CC(=O)Oc1c(C)c(C)c2c(c1C)CC[C@@](C)(CCC[C@H](C)CCC[C@H](C)CCCC(C)C)O2 in the list: -13% | 1%&1%
COc1ccc(N(CC(=O)NCc2ccccc2OC)S(=O)(=O)c2ccccc2)cc1 in the list: -4% | -9%
CN1CCN(c2ccc(Cl)cc2NC(=O)/C=C/c2cccc(F)c2)CC1 in the list: 4% | -29%

Screens from PubChem.
